High-throughput results: PubChem, National Center for Advancing Translational Sciences (NCATS)
Vaccinia Venus: qHTS for Stage-Specific Inhibitors of Vaccinia Orthopoxvirus: Venus Reporter Primary qHTS. Potency, µM (titrated, usually from 36.5 µM), without a hit: at the highest dose activity change, negative = inhibition, actives largely listed as inhibitors. 330,000 tested, 0.46% active. AID 720580, 2013. Vaccinia virus Venus reporter expression, fluorescence; active means well fitted inhibition curve with a large enough effect; inconclusive means small, poorly fitted or top-dose-only effect; inactive means no such curve, though single readings can be large or run the other way; tested in A549 cells; note: nearly all actives have a fitted effect of over 30% in size; inactives centre near -10
Vaccinia mCherry: qHTS for Stage-Specific Inhibitors of Vaccinia Orthopoxvirus: mCherry Reporter Primary qHTS; Vaccinia virus mCherry reporter infection, fluorescence; about a quarter of the inactives have no number; Potency, µM (highest dose often 36.5 µM), inactives show top-dose activity change, negative = inhibition, actives largely listed as inhibitors; 310,000 tested, 0.63% active; AID 720579, 2013; active = well fitted inhibition curve with a large enough effect; inconclusive = small, poorly fitted or top-dose-only effect; inactive = no such curve, though single readings can be large or run the other way; tested in A549 cells; note: nearly all actives have a fitted effect of over 35% in size; inactives centre near -10
Active calls of the source: *; i = inactive; ? = inconclusive; . = no result given; & = joins results of further samples; [ ] = another dose, or the depositor's remark. % is set by controls: 0 for no effect and ±100 for the full control effect; potency is the fitted concentration of half-maximal effect.

SMILES	Vaccinia Venus	Vaccinia mCherry
O=C(CSCc1ccccc1)N1CCN(c2cccc(C(F)(F)F)c2)CC1	-17%	-27%
CCC(=O)Nc1nc2nc(C)cc(=O)n2[nH]1	1%	.
O=C(c1[nH]c(C(F)(F)F)nc1-c1ccccc1)N1CCN(c2ccc(C(F)(F)F)cn2)CC1	-3%	19%
CC(C)(C)c1ccc(Oc2ccc(NC(=O)c3cccs3)cn2)cc1	?	-17%
CCOC(=O)C1CCCN(c2nc3c(S(=O)(=O)c4ccc(CC)cc4)nnn3c3ccsc23)C1 (stereo not drawn)	-13%	-10%
COc1ccc(C(=O)NCc2nnc(SCC(=O)c3ccccc3)n2C)cc1	1%	-4%
O=C(CSc1ccc(-c2ccco2)nn1)NCc1ccc2c(c1)OCO2	-7%	-3%
COc1ccc(NC(=O)COC(=O)[C@@H]2CCCN2S(=O)(=O)c2ccccc2F)c(OC)c1	-6%	-11%
COC(=O)C1(C(=O)OC)C[C@H](/C=C/c2ccccc2)N(Cc2ccccc2OC)[C@@H]1c1ccc(F)cc1	1%	?
CC1Oc2ccccc2N(Cc2ccc(F)cc2)C1=O (stereo not drawn)	-8%	-28%
Cc1ccc(S(=O)(=O)N2CCC(=O)N(C(CO)C(C)C)CC2)cc1 (stereo not drawn)	-11%	i
CCN(CC)c1ccc(CN(C(=O)c2cc(=O)c3ccccc3o2)C2CCS(=O)(=O)C2)cc1 (stereo not drawn)	-7%	-8%

Sorted by heavy-atom count (low to high): some entries from above
SMILES	Vaccinia Venus	Vaccinia mCherry
CCC(=O)Nc1nc2nc(C)cc(=O)n2[nH]1	1%	.
O=C(CSc1ccc(-c2ccco2)nn1)NCc1ccc2c(c1)OCO2	-7%	-3%
O=C(CSCc1ccccc1)N1CCN(c2cccc(C(F)(F)F)c2)CC1	-17%	-27%
CCN(CC)c1ccc(CN(C(=O)c2cc(=O)c3ccccc3o2)C2CCS(=O)(=O)C2)cc1 (stereo not drawn)	-7%	-8%
CCOC(=O)C1CCCN(c2nc3c(S(=O)(=O)c4ccc(CC)cc4)nnn3c3ccsc23)C1 (stereo not drawn)	-13%	-10%

(cont.)
SMILES	Vaccinia Venus	Vaccinia mCherry
CC(=O)Nc1ccc(-c2ccnc3c2CC(C)(C(=O)Nc2ccccc2)O3)cc1 (stereo not drawn)	?	-14%
COc1ccc2oc(-c3ccc(C)c(NC(=O)c4sc5ccccc5c4Cl)c3)nc2c1	3%	4%
CCCCCN(C(=O)CCC(=O)OCCOc1ccccc1Cl)c1c(N)n(CCCC)c(=O)[nH]c1=O	-19%	-18%
N#Cc1cccc(-c2nc(Nc3ccncc3)c3ccccc3n2)c1	-3%	-3%
CCCCCNC(=O)c1ccc2c(c1)ncn2-c1ccc(OC)cc1	-18%	i
Cc1ccc(C2=NC(=O)/C(=C/c3cc(O)c(O)c(Br)c3)S2)cc1	-7%	?
Cc1ccc(S(=O)(=O)NCc2c(-c3ccccc3)c3cc(Cl)ccc3[nH]c2=O)cc1	-19%	i
COc1ccc(NC(=O)c2sc3nc4c(c(-c5ccc(OC)cc5)c3c2N)C(=O)CC(C)(C)C4)cc1	-7%	-20%
COc1ccc(OCCCCn2c(-c3ccc(Cl)cc3)nc3ccccc3c2=O)cc1	-11%	-12%
CC(C)CCN(C(=O)Nc1ccc(Cl)cc1)C1CCN(C(C)C)CC1	-16%	-2%
O=C(O)C(Cc1ccc(Cl)cc1)Sc1nc2ccccc2[nH]1 (stereo not drawn)	-1%	-10%
COc1ccc(O)c(CN2CCC(n3nccc3NC(=O)C3CCCC3)CC2)c1	-10%	i
COc1ccc(-c2csc(Nc3cccc(C)n3)n2)cc1	-20%	?
COc1cccc(C2=NOC(C(=O)N3CCN(Cc4ccccc4)CC3)C2)c1OC (stereo not drawn)	-16%	-16%
Cc1ccnc2nc(C(=O)OCC(=O)NC3CCC(C)CC3)nn12 (stereo not drawn)	-9%	-15%
Cc1ccc(NC(=S)N2CCN(S(C)(=O)=O)CC2)cc1C	-6%	i
Cc1ccc(C2/C=C\CC(NC(=O)OCC3c4ccccc4-c4ccccc43)CC(=O)N2Cc2ccccc2)cc1 (stereo not drawn)	-8%	-16%
O=C(Cc1ccc(NC(=O)N2CCCCc3ccccc32)cc1)Nc1ccccc1Br	-17%	-15%
Cc1ccc(C)c(N2CCN(C(=O)c3cn(CC(C)C)c(=O)c4c3c3ccccc3n4C)CC2)c1	-27%	-15%
COc1ccccc1CNC(=O)COn1nnc2ccc(S(=O)(=O)N3CCOCC3)cc21	0%	-16%
CCCCN(C(=O)CSCC(=O)Nc1ccc(C)cc1)c1c(N)n(Cc2ccccc2)c(=O)[nH]c1=O	-24%	-8%
CCOc1ccc(C2N3CC4(C(C)C)CN2CC(C(C)C)(C3)C4=O)cc1OC (stereo not drawn)	-8%	-4%
CCCOCCOC(=O)c1[nH]c2c(c1C)C(=O)CC(c1cc(OC)ccc1OC)C2 (stereo not drawn)	-26%	?
Cc1ccc(S(=O)(=O)N2CCN(C(C)C(=O)N3CCCc4ccccc43)CC2)cc1 (stereo not drawn)	-9%	.
CCN(C(=O)CSc1nc2ccccc2c2nc(CCn3c(C)nc4ccccc43)nn12)c1cccc(C)c1	1%	-4%
CN1CCCCC1Cc1ccccc1 (stereo not drawn)	-4%	0%
COc1ccccc1-c1nnc2sc(-c3cnccn3)nn12	0%	i
CN1CC(=O)N=C1N	-15%&-11%	-15%
CC1([N+](=O)[O-])COP(=O)(Nc2cccc(F)c2)OC1 (stereo not drawn)	2%	-15%
COc1ccc(C(=O)N/N=C(\C)c2ccc(NC(=O)Cc3ccccc3)cc2)c(OC)c1	-14%	0%
Cn1c(-c2ccc(F)cc2)cnc1NCc1cccc(F)c1	?	?
COc1ccc(-n2c(-c3ccccc3F)nc3c(cnn3-c3ccc(C)cc3)c2=O)cc1	-11%[7.34 µM]	-17%[7.34 µM]
O=[N+]([O-])c1ccc(N2CCN(c3ccc(O)cc3)CC2)c(Cl)c1	?	?
CC1(C)Oc2ccc(C#N)cc2[C@@H](OC2=CC(=O)CC2)[C@@H]1O	-7%[60.7 µM]	-13%[60.7 µM]
O=C(OCc1nc2ccsc2c(=O)[nH]1)c1ccc(Cl)s1	0%	-5%
CC(=O)OC1C(=O)[C@@]2(C)C(O)CC3OC[C@]3(OC(C)=O)C2C(OC(=O)c2ccccc2)[C@]2(O)CC(OC(=O)C(O)C(NC(=O)c3ccccc3)c3ccccc3)C(C)=C1C2(C)C (stereo partly drawn)	?	-28%
CC(=O)OCCc1c(C)nc2nc[nH]n2c1=O	-13%	-13%
CCOc1ccccc1C1C(C#N)=C(N)N(N(C)C)C2=C1C(=O)CCC2 (stereo not drawn)	-2%	-10%
Cc1ccc(C(=O)Nc2nnc(C3=COCCO3)o2)cc1C	-27%	-11%
Cc1csc(NC(=O)C(F)(F)F)n1	-7%	-9%
CS(=O)(=O)N(CC(=O)N1CCCC1)c1cc(Cl)c(Cl)cc1Cl	-11%	-9%
COc1cc(C)nc(N2CCCC(C(=O)NC3CCC(C)CC3)C2)n1 (stereo not drawn)	-15%	i
COc1ccc(/C=N/NC(=O)CCCOc2ccc(Cl)cc2Cl)cc1	-3%	-19%
Cc1ccccc1NC(=O)COC(=O)/C=C/c1cccc(C(F)(F)F)c1	-17%	i
O=C(NC1CCCC1)C(c1ccc(F)cc1)N(Cc1ccccc1Cl)C(=O)CCl (stereo not drawn)	-18%	-10%
Cc1ccc(C)c(N2C(=O)CS/C2=N\NC(=O)c2ccccc2Cl)c1	-3%	i
Cn1c(CSCc2ccccc2)n[nH]c1=S	0%	i
CN(C)CCCC(C)(O)C(Cc1ccccc1)c1ccccc1 (stereo not drawn)	-16%	-25%
CS(=O)CCC(NS(=O)(=O)c1ccccc1)C(=O)O (stereo not drawn)	7%	7%
O=C(NCc1ccc2c(c1)OCO2)C(=O)NCC1OCCCN1S(=O)(=O)c1cc(F)ccc1F (stereo not drawn)	-13%	-7%
CCc1ccc(-c2nc(CN3CCC(C(=O)N4CCN(c5ccccc5)CC4)CC3)c(C)o2)cc1	-18%	-28%
CCc1cccc(NC(=O)C(Cc2ccccc2)NS(=O)(=O)c2ccc3c(c2)oc(=O)n3C)c1 (stereo not drawn)	0%	-9%
N#CC1=C(C2CC2)CC(c2ccccc2)C(C#N)=C1N (stereo not drawn)	-5%	-8%
COc1cccc(CNC(=O)[C@@H]2CCCN2C(=O)[C@H]2CCCCN2S(=O)(=O)c2ccc(OC)c(C)c2)c1	-12%	-15%
c1ccc2oc(-c3ccc(Nc4nc(N5CCOCC5)nc(N5CCOCC5)n4)cc3)nc2c1	-10%	i
CC1=C(C(=O)Nc2ccccc2)C(C(C)C)n2nc(SCc3ccccc3C)nc2N1 (stereo not drawn)	1%	0%
CN(Cc1ccc(CNC[C@H]2O[C@@H](n3cnc4c(N)ncnc43)[C@H](O)[C@@H]2O)o1)S(C)(=O)=O	-9%	i
O=C(Nc1ccccc1)c1ccc(Br)o1	-3%	i
CNC(=O)C[C@@H]1C(=O)N(Cc2ccccc2)CC1(C)C	-2%	i
CCN(C(=O)COc1ncnc2ccc(Br)cc12)C1CCS(=O)(=O)C1 (stereo not drawn)	-13%	-5%

Later entries.
SMILES	Vaccinia Venus	Vaccinia mCherry
Cc1nn(-c2ccc(N3CCCC3)nn2)c(C)c1CCC(=O)N1CCN(c2ccc(F)cc2)CC1	-17%	-13%
N#Cc1nc(COc2ccc(F)cc2)oc1NCCN1CCOCC1	-24%	-24%
COc1ccc(-c2nnc(SCC(=O)NCCC(C)C)nc2-c2ccc(OC)c(OC)c2)cc1OC	?	-14%&-5%
CN1CCN(C(=O)C2=C[C@@H](c3coc4ccccc4c3=O)C[C@@H](OCCCCO)O2)CC1	-17%	i
O=C(CN1N=C(c2ccc(Cl)cc2)CCC1=O)NCc1ccc(F)cc1	-6%	-6%
Cc1ccc(NS(=O)(=O)c2ccc(-c3csc(C)n3)s2)c(C)c1	-8%	-10%
O=C(CC[C@H]1O[C@@H](n2ccc(=O)[nH]c2=O)[C@H](O)[C@@H]1O)NCc1cccc2ccccc12	3%	3%
CCOc1ccc(NC(=O)c2oc3ccccc3c2NC(=O)Cc2cccc(C)c2)cc1	-14%	-4%
Cn1c(SCC(=O)N2CCCc3ccccc32)ncc(C(=O)Nc2ccc(Cl)cc2)c1=O	-15%	i
CCOC(=O)N1CCN(Cc2ccc3c(c2)CN(C(=O)c2sc(C)nc2C)CCO3)CC1	-4%	-7%
CCOC(=O)[C@]12CCC=C1N(Cc1ccc3c(c1)OCO3)C(=O)[C@H](CC(=O)NCC13CC4CC(CC(C4)C1)C3)C2	-23%	-27%
CCOC(=O)N1CCN(Cc2ccc3c(c2)CN(C(=O)c2cc(-c4ccccc4)no2)CCO3)CC1	-29%	-26%
O=C(Nc1ccccc1)C1CC(O)CN1S(=O)(=O)c1ccc([N+](=O)[O-])cc1 (stereo not drawn)	0%[7.34 µM]	4%[7.34 µM]
CCCCCC(=O)N(c1ccc(OCC)cc1)S(=O)(=O)c1ccc2c(c1)n(C)c(=O)n2C	-2%	-12%
COC(=O)c1sc(SC)nc1N	-16%[7.34 µM]	-9%[7.34 µM]
CC(=O)Nc1nnc(SCC(=O)NC2CCCC2)s1	-2%	0%
Cc1ccc2nc(/C(C#N)=C/c3ccc(-c4cccc([N+](=O)[O-])c4)o3)[nH]c2c1	-16%	0%
CC(C)Nc1nc(NC(C)C)nc(N(C#N)CCOc2ccc(Cl)cc2Cl)n1	?	?
O=C(c1ccncc1)N(c1ccc2oc3c(c2c1)CCCC3)S(=O)(=O)c1ccc(F)cc1	-16%	-25%
Cc1cc2oc(=O)cc(CN(C)Cc3ccccc3)c2cc1Cl	-12%	9%
Cc1ccc(N(C(=O)Cn2nnc(-c3ccccc3)n2)C(C(=O)NC2CCCCC2)c2ccccn2)cc1C (stereo not drawn)	-10%	i
N#C/C(=C/c1cccc([N+](=O)[O-])c1)c1nnc2n1CCCCC2	-20%	-16%
Cc1cc(NC(=O)CSc2nnc(C3COc4ccccc4O3)n2C)no1 (stereo not drawn)	-8%	-5%
CCCCCn1c(NC(=O)c2ccco2)c(C(=O)OCC)c2nc3ccccc3nc21	-29%	-27%

Quoted at random: two records from the list.
SMILES	Vaccinia Venus	Vaccinia mCherry
CC(C)Nc1nc(NC(C)C)nc(N(C#N)CCOc2ccc(Cl)cc2Cl)n1	?	?
CN(C)CCCC(C)(O)C(Cc1ccccc1)c1ccccc1 (stereo not drawn)	-16%	-25%

The listing continues:
SMILES	Vaccinia Venus	Vaccinia mCherry
O=C(NC1CCCCC1)C(c1ccc(F)cc1)N(C(=O)Cc1ccsc1)c1ccc(F)cc1 (stereo not drawn)	-5%	-17%
CC(C)(C)CC(=O)N[C@@H](Cc1ccccc1)c1nc2ccccc2[nH]1	3%	i
O=S(=O)(c1ccc2nnn(O)c2c1)N1CCCCC1	-2%	i
O=C1CN(CCN2CC(=O)N(Cc3ccccc3)C(=O)C2)CC(=O)N1Cc1ccccc1	-15%	-9%
Cc1c(C(=O)N/N=C/c2cccnc2)nnn1-c1nonc1N	3%	19%
CC(C)CC(C(=O)O)N1C(=O)[C@@H]2[C@H](C1=O)[C@@H]1C[C@H]2C(Br)C1Br (stereo partly drawn)	-5%	-9%
COc1cc(Cn2c3ccc(NC(=O)NCCc4ccccc4)cc3c(=O)n2C)ccc1F	-16%	17%

Record cards, from the list above.
CCC(=O)Nc1nc2nc(C)cc(=O)n2[nH]1 in the list: Vaccinia Venus = 1%; Vaccinia mCherry = .
CCOc1ccccc1C1C(C#N)=C(N)N(N(C)C)C2=C1C(=O)CCC2 (stereo not drawn) in the list: Vaccinia Venus = -2%; Vaccinia mCherry = -10%
